HIV TAR-Tat – HIV-1 TAR-Tat binding disruption; HIV-1 TAR RNA, Tat peptide displacement FRET; hits give high values; z-score (no concentration beside the values); 0.6% of 100,000 active; AID 1259389;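 note: score is relative to mean and SD of negative controls; some compounds called inactive have numbers as strong as hits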
CDC25B CDK2 inh – human CDC25B-CDK2/CyclinA binding inhibition; P30305+P24941; HTRF CDC25B-CDK2/CyclinA binding, anti-His/anti-Flag; hits give high values; z-score (concentration not given with the values); 0.72% of 94,000 active;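 note: score is relative to mean and SD of negative controls; strong numbers were not always called active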
The depositor's hits bear a star; x = no result given.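 Rule for the calls: active = z-score from 3 up in half or more of its runs; inactive = the rest.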

SMILES | HIV TAR-Tat | CDC25B CDK2 inh
CC(=O)N1CCOc2ccc(S(=O)(=O)N(C)c3ccc(Br)cc3)cc21 | 1.8 | -1.1
COc1cccc(-n2c(=O)[nH]c3c(c2=O)C(C)(C)Cc2ccccc2-3)c1 | 0.7 | -0.71
Cc1nc(N)sc1-c1csc(Nc2ncccn2)n1 | -0.11 | -0.74
COc1ccc(C2C(C(=O)OC(C)C)=C(C)NC(C)=C2C(=O)OC(C)C)cc1OC | x | -0.98
COC(=O)c1ccc(C(=O)OC)c(NC(=O)N2CCC3(CC2)Nc2ccccc2-n2cccc23)c1 | 0.73 | x
CCOc1ccccc1Nc1c(OCC)c(=O)c1=O | 0.49 | x
CCc1nn(C(C)C(=O)NCCCN(C)C2CCCCC2)c(=O)c2cc3occc3n12 (centres undefined) | -1.9 | -0.88
CC(=O)N1c2nc(C(=O)N3CCOCC3)nn2C2(CCCCC2)[C@@H]2CCCC[C@@H]21 | 2 | -1.5
O=C(COc1ccc(F)cc1)Nc1nccs1 | -0.24 | -1.4
CCN1CCN(C(=O)C2Cc3ccccc3N2C(C)=O)CC1 (centres undefined) | 0.79 | x
CC(=O)N1c2ccc(S(=O)(=O)Nc3c(C)n(C)n(-c4ccccc4)c3=O)cc2CC1C (centres undefined) | 0.19 | x
O=S1(=O)NC(=NC2CCCCC2)c2ccccc21 | 1.3 | 0.44
Cn1cnnc1Sc1nc2c(c(=O)n(C)c(=O)n2C)n1Cc1ccc(Br)cc1 | 0.69 | -2.6
CCN1CCCC1CNC(=O)c1sc2ncccc2c1-n1c(C)ccc1C (centres undefined) | 0.15 | x
O=c1ccc2ccc(O)cc2o1 | 0.33 | x

Reformatted as tab-separated lines: part of the list above.
compound	HIV TAR-Tat	CDC25B CDK2 inh
COc1cccc(-n2c(=O)[nH]c3c(c2=O)C(C)(C)Cc2ccccc2-3)c1	0.7	-0.71
Cc1nc(N)sc1-c1csc(Nc2ncccn2)n1	-0.11	-0.74
COc1ccc(C2C(C(=O)OC(C)C)=C(C)NC(C)=C2C(=O)OC(C)C)cc1OC	x	-0.98
COC(=O)c1ccc(C(=O)OC)c(NC(=O)N2CCC3(CC2)Nc2ccccc2-n2cccc23)c1	0.73	x
CCOc1ccccc1Nc1c(OCC)c(=O)c1=O	0.49	x
CCc1nn(C(C)C(=O)NCCCN(C)C2CCCCC2)c(=O)c2cc3occc3n12 (centres undefined)	-1.9	-0.88
CC(=O)N1c2nc(C(=O)N3CCOCC3)nn2C2(CCCCC2)[C@@H]2CCCC[C@@H]21	2	-1.5
O=C(COc1ccc(F)cc1)Nc1nccs1	-0.24	-1.4
CCN1CCN(C(=O)C2Cc3ccccc3N2C(C)=O)CC1 (centres undefined)	0.79	x
CC(=O)N1c2ccc(S(=O)(=O)Nc3c(C)n(C)n(-c4ccccc4)c3=O)cc2CC1C (centres undefined)	0.19	x
O=S1(=O)NC(=NC2CCCCC2)c2ccccc21	1.3	0.44
Cn1cnnc1Sc1nc2c(c(=O)n(C)c(=O)n2C)n1Cc1ccc(Br)cc1	0.69	-2.6
CCN1CCCC1CNC(=O)c1sc2ncccc2c1-n1c(C)ccc1C (centres undefined)	0.15	x
O=c1ccc2ccc(O)cc2o1	0.33	x

The results go on.
SMILES | HIV TAR-Tat | CDC25B CDK2 inh
COc1ccc2c(c1)NC(c1cccnc1)=NC(c1ccccc1)=N2 | 0.9 | -0.95
CN1C(=O)Cc2cc(S(=O)(=O)N3CCN(c4ccccc4F)CC3)ccc21 | -0.41 | x
CCC(C)NC(=O)c1ccc2c(c1)sc1nc(-c3ccc(C)cc3)cn12 (centres undefined) | 3 | x
C=CCn1c(N)cc(=O)nc1SCC(=O)Nc1cc(C)ccn1 | 1.1 | 0.76
O=C(NCCCn1ccnc1)C1(c2cccs2)CCOCC1 | 2.6 | x
O=C1C=C(NCc2ccco2)CC(c2ccc(Cl)cc2)C1 (centres undefined) | x | -2.5
CCC(C)NC(=O)C1=CC(c2ccc(C)cc2)=NS(=O)(=O)N1C (centres undefined) | 2.1 | -0.35
CC1=C(C#N)c2nc(N)c(C#N)c(C)c2/C1=C/c1ccc(-c2ccc(C(=O)O)c(Cl)c2)o1 | x | 5.1*
COC(=O)c1ccc(OC)c(CN2C(=O)N(Cc3ccc(F)cc3)S(=O)(=O)c3ccccc32)c1 | 1.9 | x
CCOC(=O)c1cc(-c2csc(Nc3c(C)cc(C)cc3C)n2)on1 | x | -1.3
O=c1[nH]c(SCc2ccccc2F)nc2c1CCCC2 | 3.5 | -2
CCOc1ccc(-n2c(SCc3cc(=O)n4cc(Cl)ccc4n3)nc3ncccc3c2=O)cc1 | -0.48 | -0.49
CCOC(=O)c1c(NC(=O)Cc2coc3cc(C)cc(C)c23)sc2c1CCC2 | 0 | -0.38
Cc1ccc2ncc(C(=O)Nc3cccc(Cl)c3)c(=O)n2c1 | 1.9 | -2.3
COc1ccc(OC)c(-n2nnc(-c3nc(-c4ccc(Br)cc4)no3)c2N)c1 | 0.65 | x
CCc1cc(C(N)=S)ccn1 | 2.5 | x
O=S(=O)(Nc1nc2ccccc2nc1Nc1ccccc1)c1ccccc1 | x | -1.9
CCOC(=O)c1c(C)oc2ncnc(Nc3ccc(OC)cc3OC)c12 | 1.3 | -0.17
N#CC1=C(N)OC2=C(C(=O)CCC2)C1CCc1ccccc1 (centres undefined) | x | -0.63
CCN(CC)CCCNc1ncnc2onc(-c3cccc(Cl)c3)c12 | 0.39 | x
COCc1nc2ccccc2n1CCOc1ccccc1Cl | -0.18 | -0.54
CNC(=O)c1c(NC(=O)c2cc(=O)c3ccccc3o2)sc2c1CCC2 | 0.78 | x
O=C(CN1C(=O)CSc2cccn2-c2ccccc21)NCCc1c[nH]c2ccccc12 | 1.6 | x
O=C(NCCCN1CCCC1=O)c1cc(-c2cccnc2)nc2ccccc12 | 0.57 | x
CCN1C(=O)c2cc(C(=O)NCCCN3CCCCC3)nn2CC1(C)C(=O)NC1CCCC1 (centres undefined) | 0.63 | x
O=C(c1c[nH]c2ccc(F)cc2c1=O)N1CCOCC1 | 0.11 | -0.99
CCOc1ccc(Oc2nc(NC(C)(C)C)nc(N3CCOCC3)n2)nn1 | x | -2.5
Cc1cc2c(cc3c(=O)n(CCCC(=O)NC(C)CCc4ccccc4)nc(C)n32)o1 (centres undefined) | 0.31 | -1.1
CSc1nn(CC(=O)Nc2ccc(Br)cc2)c(N)c1S(=O)(=O)c1ccccc1 | -0.23 | x
Cc1nc(-c2ccc(S(=O)(=O)N3CCOCC3)cc2)co1 | 0.11 | x
O=C(C1CCN(c2nnc(-n3cccc3)s2)CC1)N1CCC(N2CCCCC2)CC1 | -1.2 | 0.39
COc1ccc(OC)c(C2C(C(=O)OC(C)C)=C(C)NC3=C2C(=O)CC(c2ccccc2)C3)c1 (centres undefined) | 0.94 | -0.23
O=C(Nc1cccc(Cl)c1)c1c(O)c2cccc3c2n(c1=O)CCC3 | 1.3 | x
NC1=NC(=O)CC(C(=O)Nc2ccc3c(c2)OCCO3)S1 (centres undefined) | x | -1.5
COC(=O)c1c(C)oc2ccc(OC(=O)c3ccc(Br)cc3)cc12 | 1.4 | -2.6
COc1cccc(-c2nc(SCCOc3ccccc3C)n3[nH]c(=O)cc3n2)c1 | 2 | x
CCCCSCCCNC(=O)c1ccc(-n2ccc3ccccc32)s1 | -0.16 | x
Cc1cc(Cl)ccc1NC(=S)N/N=C/c1ccc(N(C)C)cc1 | x | -2
Cc1oc2ncnc(N3CCCCC3)c2c1C(=O)N1C(C)CCCC1C (centres undefined) | 0.28 | x
CC(C)CSc1nc2ccccc2n1CC(=O)O | 0.87 | -0.9
CCOC(=O)c1sc2nc(C)nc(Nc3cc(Cl)ccc3OC)c2c1C | x | 0.05
O=C1CCCc2cc(S(=O)(=O)N3CCCCC3)ccc2N1 | 0.36 | x
Cc1cc2c(c(=O)o1)C(c1c(F)cccc1Cl)C(C#N)=C(N)O2 (centres undefined) | x | -1.2
CCC(=O)N1CCc2cc(S(=O)(=O)NC(CC(C)C)C(=O)N3CCCCC3)ccc21 (centres undefined) | x | -0.82
Cc1cccc(-n2cc(-c3ccccc3)c3c(NCCO)ncnc32)c1 | x | 0.3
S=c1[nH]c2ccccc2n1Cc1ccccc1Cl | x | -0.27
O=C(CCCn1c(=S)[nH]c2ccccc2c1=O)N1CCCC1 | x | -1.3
C=CCN1C(=O)C(CC)NC1=S (centres undefined) | x | -0.37
Cc1cccc(Oc2c(C(F)(F)F)oc3cc(OCC(=O)OC(C)C)ccc3c2=O)c1 | 1.2 | -1.5
O=C(NC1CCS(=O)(=O)C1)C1=Cc2cc(Br)ccc2OC1 (centres undefined) | 0.37 | x
CC1Cc2cc(S(=O)(=O)CCC(=O)NC3CC3)ccc2N1C(=O)C1CC1 (centres undefined) | 1.3 | x
Nc1ccccc1SC/C=C/CSc1ccccc1N | x | 15*
CC(C)Sc1nc(N2CCCC2)c2c(c1C#N)CC(C)(C)OC2 | 1.4 | 0.37
COC(=O)c1c(OC)cc2c(c1C)Oc1c(Cl)c(O)c(Cl)c(C)c1C(=O)O2 | 1.4 | x
CCCCc1ccc(N2CC(C(=O)O)CC2=O)cc1 (centres undefined) | x | -0.39
Cn1nc(C(=O)N2CCN(c3ccccc3)CC2)c2c1-c1ccsc1CC2 | 0 | x
O=S(=O)(NCc1ccccc1Cl)c1ccc2[nH]c3c(c2c1)CCCC3 | -0.97 | x
Cn1c(=O)c2sccc2n2c(CCCC(=O)Nc3ccc(Cl)cc3)nnc12 | -0.94 | x
S=C1SCN(CCN2CCOCC2)CN1Cc1ccccc1 | x | -2.2
COc1ccc(N2CCN(c3ncc4c(n3)CCN(Cc3ccc(OC)cc3OC)C4)CC2)cc1 | 0.56 | x
Next part
SMILES | HIV TAR-Tat | CDC25B CDK2 inh
Cc1cccc(NC(c2ccncc2)c2ccc3cccnc3c2O)c1 (centres undefined) | 2 | -1
COCCNc1cc(N2CCN(c3ccccc3F)CC2)c2noc3c2c1C(=O)c1ccccc1-3 | 0.77 | 0.65
CCOc1ccc(-c2cccc(NS(=O)(=O)c3ccc(C)s3)c2)nn1 | 1.1 | x
CCCSc1nc2c(c(=O)n1-c1ccccc1)SCC2 | x | -1
CC1CCN(S(=O)(=O)c2ccc3c(ccn3CC(=O)O)c2)CC1 | 2.3 | x
Fc1ccc(Cc2cn3cc(-c4ccc(Cl)cc4)nc3s2)cc1 | 0.25 | -0.56
O=C(NCCCN1CCOCC1)c1cnc2sc(N3CCOCC3)nn2c1=O | 0.95 | x
CC1CCC(NC(=O)C2(C)Cn3c(cc4sccc43)C(=O)N2C2CCCC2)CC1 (centres undefined) | 2.5 | -1.5
CCOC(=O)C1CCN(S(=O)(=O)c2ccc3c(c2)OCC(C(=O)N2CCCCC2)O3)CC1 (centres undefined) | 0.57 | x
C=CC(C1=CC(=O)C(OC)=CC1=O)c1ccc(O)cc1 (centres undefined) | 0.29 | x
CCN1CCN(C(=O)C(NS(=O)(=O)c2ccc3nc(C)sc3c2)C(C)C)CC1 (centres undefined) | x | -1.3
Cc1[nH]c(=O)[nH]c1CN1CCCCC1 | -0.47 | -0.22
CC(=O)Oc1ccc2c(c1)CCC1C3CCC(OC(C)=O)C3(C)C[C@](C)(O)C21 (some centres undefined) | x | -2.3
COc1ccc(CCNc2oc(COc3ccccc3)nc2C#N)cc1 | -2.1 | -2.3
COc1ccc(Nc2nc(C)c3c(n2)CC(C)CC3=O)cc1 (centres undefined) | 0.42 | -1.7
COc1cc2ncc(S(=O)(=O)c3ccccc3)c(N3CCN(c4ccccc4)CC3)c2cc1OC | 0.64 | 0.11
O=C(CCCCn1c(=S)[nH]c2ccsc2c1=O)NCC1CCCO1 (centres undefined) | x | -2.1
CC(Sc1nnc(-c2ccco2)n1-c1ccccc1)C(=O)O (centres undefined) | -0.56 | -0.61
COc1cc(C2c3c(-c4ccccc4O)n[nH]c3C(=O)N2CC2CCCO2)ccc1O (centres undefined) | 0.22 | -1.9
CC1CCN(c2cc(NCC(=O)O)c3c4c(onc24)-c2ccccc2C3=O)CC1 | -6 | 14*
CCCCOC(=O)c1c(C)oc2ccc(NS(=O)(=O)c3cc(OC)ccc3OC)cc12 | -0.66 | -0.01
CN1CCN(C(=O)Cn2c(=O)oc3ccccc32)CC1 | 0.11 | x
CCCCN(CC)C(=O)Cn1ncc2c3ccccc3n(C)c2c1=O | x | -1.9
O=c1[nH]c(SCCOc2ccc(Cl)cc2)nc2ccccc12 | 2 | -10
Oc1c(C(c2ccccn2)N2CCCC2)ccc2cccnc12 (centres undefined) | -1.6 | 0.29
O=C(NCc1cccnc1)C1CCCN1S(=O)(=O)c1ccc(-c2ccc(=O)[nH]n2)s1 (centres undefined) | 0.95 | x
CC1=NN(C(=O)c2cc(-c3ccc(C)s3)nc3ccccc23)C(O)(C(F)(F)F)C1 (centres undefined) | x | -0.22
Cc1cccc2c1-c1sc(C(=O)O)cc1CO2 | 0.48 | 0.87
O=C(O)CCS(=O)c1ccccc1C(=O)O (centres undefined) | 1.5 | -0.84
Cc1cc(C)n(-c2nc3ccccc3nc2Cl)n1 | 1.5 | -2
CC1=CC(=O)C2=C(C)CC[C@@H]3[C@H](OC(=O)[C@H]3C)[C@@H]12 | 1.6 | x
O=S1(=O)C[C@H](NC2CCCCC2)[C@@H](S(=O)(=O)c2ccc(Cl)cc2)C1 | -2.2 | -0.95
COc1ccc2cc3c(nc2c1)N(C(=O)c1ccccc1Br)CC3 | -0.66 | -1.4
Cc1ccc2oc(SCC(=O)NC3CC(C)(C)NC(C)(C)C3)nc2n1 | 2.2 | x
Cc1cc(C)c2[nH]c(=O)cc(C(=O)O)c2c1 | 2.1 | 0.57
COc1ccc(OC)c(NC(=O)c2sc(=S)n(-c3ccccc3)c2N)c1 | 0.8 | x
CCOC(=O)N1CCc2c(sc(N)c2C#N)C1 | x | 5.7*

Compound activity (PubChem BioAssay)
